Screening results deposited in PubChem by several laboratories.
RN4220 kill: growth inhibition of S. aureus RN4220, primary screen, OD600; 16 h; inhibition, % (test concentration not listed); actives 0.33% (n = 330,000); AID 1259311, 2017;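 active means z-score of -3 or lower and OD600 up to 0.18 on both plates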;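 further: plate controls were untreated cells for no effect and reference antibiotic for full effect; stock transfer was 100 nL into about 80 µL; one replicate is shown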
BJeLR lethal: MLPCN primary cell-based screen for lethality selective to Ras in HRASV12 cells; BJeLR (HRASV12) viability, CellTiter-Glo ATP luminescence, 48 h; reference of the scale not given here; inhibition, % (no concentration beside the values); actives 0.17% (n = 300,000);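 active means replicate mean above 50%; inconclusive means above 50% but judged a plate artefact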;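 further: 50 nL library stock added to about 25 µL; numbers are from one replicate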
Bead autofluor: counter-screen for toxin protease inhibitors: compound fluorescence; compound autofluorescence counterscreen, microsphere flow cytometry; stronger effect = higher value; fluorescence intensity (no concentration beside the values); actives 3.1% (n = 360,000); AID 624483;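 active means at least 3 SD above the mean of all compounds, about 16000 in these data; inconclusive means too few beads counted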;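 further: 100 nL of 1 mM stock went into each well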
PrP 5UTR inh: inhibition of PrP 5' UTR reporter expression. AID 488862, 2010. inhibition, % (test concentration not listed). cell-based PrP 5' UTR mRNA reporter, plate reader. actives 0.35% (n = 340,000);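 active means every replicate at 50% or more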;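 further: 0 = median of the neutral control wells; tested in H4 reporter cells; numbers are from one replicate; inactives centre near -14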
Sa ugtP lethal: growth inhibition of ugtP-null S. aureus, primary screen, RN4220 ugtP deletion, OD600. 16 h; some inactives read as strong as hits. growth inhibition, % (test concentration not listed). actives 0.54% (n = 330,000). AID 1259309, 2017;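 active means z-score under -3 and OD600 up to 0.15 on both plates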;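 further: plate controls were untreated wells for no effect and antibiotic for full effect; wells of about 80 µL received 100 nL stock; the first replicate is given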
Mtb hypoxia inh: PubChem AID 1159583 | M. tuberculosis hypoxia-regulated fluorescent reporter, fluorescence | fluorescence inhibition, % (no concentration beside the values) | actives 0.1% (n = 300,000);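 active means 35 to 45% if threefold the growth effect, above 45% if 1.5-fold the growth effect; inactive means the rest, general growth blockers included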;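 further: wells of about 50 µL received 100 nL stock; 0% = vehicle wells and 100% = reference inhibitor wells; whole bacteria with a GFP reporter of the hypoxia response; strong numbers were not always called active; many hits fall short of the cut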
Mtb hypoxia inh growth: second read-out of Mtb hypoxia inh, no call of its own (marks repeat the call); growth inhibition, %; measured here: M. tuberculosis growth (absorbance);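 0% = vehicle and 100% = reference antibiotic; read after six days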
Active calls of the source: *; ? = inconclusive; nt = not tested or not shown; & = joins results of further samples.

SMILES	RN4220 kill	BJeLR lethal	Bead autofluor	PrP 5UTR inh	Sa ugtP lethal	Mtb hypoxia inh	Mtb hypoxia inh growth
O=C(c1ccccc1Cl)c1c(O)c2ccccc2oc1=O	15	5	3842	-18	5	3	2
CC(C)C[C@H]1CN=C(N(C)C)N1CC1CCCC1	17	nt	3216	10	16	9	12
CCN1CCSc2ccc(C(=O)NCc3cc(Br)ccc3OC)cc21	0.1	1	6990	-8	-1	2	-1
COc1ccc(-n2nnc3c(=O)n(Cc4ccccc4C)cnc32)cc1	2.8	0	11273	-18	10	8	1
CCOc1ccc(OCC(=O)Nc2ccc(OC)cc2)cc1	2.9	-9	3664	-1	8	3	3
COc1cccc(-c2noc(CCCC(=O)N3CCOCC3)n2)c1	3.9	0	4619	-23	3	6	8
Cc1ccc(-n2cnnn2)cc1Cl	3.0	0	4465	-14	1	0	5
CCCc1[nH]nc2c1C(c1ccc(OC(=O)c3ccco3)cc1)C(C#N)=C(N)O2 (stereo not drawn)	6.3	-3	17196*	2	15	0	-1
Cc1cccc(C(=O)Nc2sc(-c3ccccc3)cc2C(=O)O)c1	3.5	1	4919	-56	7	-20	-10
CCn1cc(CN2CCN(Cc3ccc(OC)c(C)c3C)C(CCO)C2)c(C)n1 (stereo not drawn)	0.7	14	3410	-13	6	-4	-1
COc1cc2c(cc1OC)C(C(=O)N1CCCC1)C(c1ccccc1F)N(C)C2=O (stereo not drawn)	7.1	-13	3191	-2	11	5	4
CN(C)c1ccc(/C=C/C#N)cc1	4.8	-11	6973	-21	-3	2	15
CCCN(CC(=O)Nc1ccc(F)c(F)c1F)C(=O)CCc1nc2ccccc2c(=O)[nH]1	3.4	-14	?	-10	4	-11	-4
CCNC(=S)N1CCC(n2cnc3ccccc32)CC1	-1.0	-17	3978	-7	-9	-2	6
C=CCOc1c(CNn2nnnc2N)cccc1OC	6.9	-11	2775	-27	11	2	5
Cn1c(=O)c(C=Nc2ccccc2)c(O)c2ccccc21	3.6	-1	nt	nt	8	7	13
O=C(C1CCC(Cn2c(=S)[nH]c3ccccc3c2=O)CC1)N1CCN(c2ccccc2)CC1 (stereo not drawn)	2.1	-2	8979	-22	-13	5	17
COc1ccccc1N1CCN(S(=O)(=O)c2ccc3c4c(cccc24)C(=O)N3C)CC1	1.2	-5	nt	nt	4	nt	nt
CCC(C)(C)n1nnnc1C(c1cccnc1)N1CCCC(C)C1 (stereo not drawn)	-1.1	-4	2261	-21	9	0	-3
O=C(CN1CCOCC1)Nc1ccc2c(c1)OCCO2	2.0	-19	5199	-44	0	-4	5
O=C(COCc1cc(-c2ccc3c(c2)OCO3)on1)Nc1cccnc1Cl	2.3	-3	5313	-6	-2	6	8
COc1ccc(CNC(=O)c2ccc(CNc3c(NC4CCCCC4)c(=O)c3=O)cc2)cc1	4.2	-7	5955	-56	17	5	4
O=C(CC(c1ccccc1)c1ccccc1O)N1CCCCC1 (stereo not drawn)	4.3	-2	4042	-6	1	-5	-2
O=C(O)c1cc(-c2ccc(-c3c(-c4ccc5c(c4)OCO5)noc3-c3ccsc3)cc2)nc2ccccc12	96*	-14	3560	-35	94*	0	3
COc1ccc2nc(SCC(=O)N3CCCCC3)c(C#N)cc2c1	3.5	-6	3440	-7	0	7	20
(more compounds)
SMILES	RN4220 kill	BJeLR lethal	Bead autofluor	PrP 5UTR inh	Sa ugtP lethal	Mtb hypoxia inh	Mtb hypoxia inh growth
Fc1ccccc1C1c2cccn2CCN1C(=S)Nc1cccc(Br)c1 (stereo not drawn)	-0.3	-7	4091	-29	1	2	-1
CCNc1nc(NC(C)C)nc(N(C#N)CC(=O)OC)n1	0.8	-10	4357	-13	3	15	5
Nc1nc(-c2cccs2)c(CC(=O)O)s1	1.9	0	2059	-29	2	2	9
Cc1cc(C(=O)COC(=O)c2cccc(S(=O)(=O)N(C)C)c2)c(C)n1CC1CCCO1 (stereo not drawn)	4.1	nt	5353	-73	8	-2	-4
COc1ccc(OCC(=O)N(C)Cc2ccccc2)cc1	8.7	10	2866	-18	-2	1	4
O=C(COc1ccc(/C=N/NC(=O)c2ccccc2)cc1)Nc1ccc([N+](=O)[O-])cc1	nt	1	2872	-32	nt	nt	nt
COc1ccc(-c2c3c(=O)n(C)c(=O)n(C)c3cn2NC(C)=O)cc1	4.2	1	9055	-33	4	-3	-1
CCN1CCN(C(CNS(=O)(=O)c2ccc(OC)cc2)c2cccnc2)CC1 (stereo not drawn)	-15	11	4706	-12	-6	1	-2
OC1CCCCC1N1CCC(c2ccccc2)CC1 (stereo not drawn)	5.0&1.3	1	6551	-6&-22	6&-8	2&-1	10&4
COc1ccc(CC(=O)N(Cc2ccccc2)C(C)C)cc1	4.1	-7	3889	-12	5	7	3
Cc1ccc(C(=O)Cn2nnc(-c3ccccc3)n2)cc1	11	5	6223	-27	13	15	1
O=C1CC2(CCN(C(=O)COc3ccc(F)cc3)CC2)Oc2ccccc21	-4.3	-9	?	-11	-4	-6	11
Cc1cc(=O)oc2cc(OCC(=O)OCC(=O)Nc3ccc4ccccc4c3)ccc12	-3.8	0	2087	-28	-1	-9	0
N#Cc1cccnc1N1CCN(C(=O)c2ccccc2)CC1	1.8	-1	3139	-6	3	7	5
O=[N+]([O-])c1ccc(OC(F)F)c(/C=N/n2cnnc2)c1	nt	13	4433	-8	nt	nt	nt
CN1CCN(NC(=O)c2cccs2)CC1	5.0	1	3360	-7	6	2	-4
N#Cc1ccccc1CN1C(=O)c2ccccc2S1(=O)=O	6.4	6	3912	-29	13	1	2
Cc1[nH][nH]c(=O)c1C=Nc1ccc(C(F)(F)F)cc1	5.2	-1	2266	1	12	-9	2
Nc1cc(=O)[nH]c(SCC(=O)Nc2ccccc2Sc2ccccc2)n1	-9.1	-14	3225	-15	-3	-17	-1
O/N=C/c1cc(Cl)ccc1OCc1ccccc1Cl	nt	-9	3052	-2	nt	nt	nt
CC(NC(=O)C(C)N1C(=O)c2ccccc2C1=O)c1ccccc1 (stereo not drawn)	1.1	-13	3375	-47	-2	5	-1
O=C(Cn1cc(C(=O)C2CC2)c2ccccc21)Nc1ccc(F)cc1	5.2	-12	4987	-2	6	0	2
CCc1cccc(NC(=O)C2CCCN(S(=O)(=O)c3c(C)[nH]c(=O)[nH]c3=O)C2)c1 (stereo not drawn)	-1.6	3	2887	-16	10	nt	nt
CC1C(=O)N2CCCc3cc(NC(=O)COc4ccccc4)cc1c32 (stereo not drawn)	2.6	6	nt	-13	6	6	0
CC(C)c1csc(CN2CCC(n3nccc3NC(=O)Cc3ccccc3)CC2)n1	1.0	4	5597	-1	5	-7	2

Overlap with the part before: 2 entries, followed by the next part.
SMILES	RN4220 kill	BJeLR lethal	Bead autofluor	PrP 5UTR inh	Sa ugtP lethal	Mtb hypoxia inh	Mtb hypoxia inh growth
CC1C(=O)N2CCCc3cc(NC(=O)COc4ccccc4)cc1c32 (stereo not drawn)	2.6	6	nt	-13	6	6	0
CC(C)c1csc(CN2CCC(n3nccc3NC(=O)Cc3ccccc3)CC2)n1	1.0	4	5597	-1	5	-7	2
COc1cccc(OC)c1C(=O)NC(=S)N1CCCCC1c1cccnc1 (stereo not drawn)	0.5	1	5798	-20	-5	nt	nt
CC(=O)c1c(C)[nH]c(C(=O)OCC(=O)N(Cc2ccccc2)C(C)(C)C)c1C	1.4	nt	nt	-16	1	2	-18
COCCN1C(=O)C(=O)/C(=C(/O)c2ccc(S(=O)(=O)N3CCOCC3)cc2)C1c1cccc(Cl)c1 (stereo not drawn)	2.8	-6	4611	-26	10	-7	-14
COc1ccc(CNN2CCCCC2C(=O)Nc2ccc(OC)c(OCC(C)C)c2)cc1OC (stereo not drawn)	5.2	-8	4450	-35	-1	0	-8
CC1=NN(c2ccc(C)cc2)C(=O)/C1=C\C=C\c1ccccc1	4.1	-12	2098	-25	1	8	1
COc1ccc(OC)c(S(=O)(=O)NCC(c2ccc(F)cc2)N2CCN(C)CC2)c1 (stereo not drawn)	2.6	1	nt	-11	7	6	6
CCN(CC(=O)Nc1cc(Cl)ccc1C)C(=O)c1ccc(=O)n(Cc2ccccc2)n1	2.2	-4	4637	-66	-1	-10	-12
CN(C)S(=O)(=O)c1cc(NC2CC(=O)N(c3ccc(F)cc3)C2=O)ccc1Cl (stereo not drawn)	4.0	1	4771	-12	5	-2	5
COC(=O)c1cc(S(=O)(=O)Nc2ccc(C)c(F)c2)c[nH]1	2.1	9	5951	-13	3	7	-4
CCn1c(=S)sc2c(=O)n(CC(=O)Nc3cccc(Cl)c3)c(C)nc21	-0.9	8	4378	-6	-15	10	1
CSCCC(NS(=O)(=O)c1ccc(C)cc1)C(=O)Nc1ccc(C)cn1 (stereo not drawn)	2.1	3	?	2	2	-7	-7
COc1ccc(CNS(=O)(=O)c2c(C(=O)N3CCCCCC3)c(C)n(C)c2C)cc1	4.0	-12	6509	-68	4	22	8
Cc1cc2c(cc1S(=O)(=O)NCc1ccccc1)NC(=O)CO2	-1.7	-6	nt	-12	7	6	5
CN(C)S(=O)(=O)n1cc(/C=C(\NC(=O)c2ccccc2)C(=O)NCCN2CCOCC2)c2ccccc21	-2.9	-4	4863	-34	-4	-2	-3
Cc1ccccc1OCC(O)COc1ccccc1C	3.5	nt	?	-29	-5	7	2
CC1CCN(C(=O)COC(=O)c2cc(S(=O)(=O)N3CCOCC3)ccc2Cl)CC1	0.0	-5	5674	-9	5	11	2
CN1CCN(C(=S)Nc2ccc(Cl)c(Cl)c2)CC1	2.1	-5	10774	0	4	5	12
COCCN1Cc2cccc(C(=O)NCc3cccnc3)c2C1=O	4.0	8	6406	-2	-1	-6	-4
CC(CC(=O)Nc1cccc(Cl)c1C)=NNC(=O)C(=O)NCC(C)C	2.4	nt	nt	nt	1	6	5
COc1cccc(OCCNS(=O)(=O)c2cccc([N+](=O)[O-])c2)c1	7.3	8	4482	-7	-1	7	8
CC1CC1C(=O)OCC(=O)NCc1ccccc1 (stereo not drawn)	2.5	nt	nt	-16	4	5	7
OC12CCCCC1C(c1ccc3c(c1)OCO3)N(Cc1cccc(F)c1)CC2 (stereo not drawn)	-5.0	5	3816	-15&-25	-18	11	9
CCc1ccc(OCCOCCN2CCN(C)CC2)cc1	5.8	0	3897	-7	6	3	12
COc1ccc(C=O)cc1O	4.2	2	3528	-35	1	13	4
Cc1ccc(S(=O)(=O)CCSc2nc(C)cc(C(F)(F)F)c2C#N)cc1	-13	2	5577	-6	-3	14	7
Other results follow:
SMILES	RN4220 kill	BJeLR lethal	Bead autofluor	PrP 5UTR inh	Sa ugtP lethal	Mtb hypoxia inh	Mtb hypoxia inh growth
CCN(C(=O)CN1C(=S)NC(C)(C)CC1C)c1ccc(C)c(C)c1 (stereo not drawn)	nt	4	3163	-13	nt	nt	nt
O=c1[nH]c(COc2ccccc2)nc2ccccc12	5.6	-7	3703	-20	6	0	1
Cc1ccccc1NC(=S)NCc1cccn1C	4.2	-2	2396	-9	7	5	2
COCc1ccc(C(=O)N2CCCC(N(C)Cc3ccccc3)C2)s1 (stereo not drawn)	0.7	0	6396	-12	3	12	6
c1cnc2ccc(C(c3nnnn3C3CCCC3)N3CCN(c4nc5ccccc5s4)CC3)cc2c1 (stereo not drawn)	-5.3	nt	3485	6	-12	nt	nt
C/C(=N/NC(=O)CCC(=O)Nc1ccc(Br)cc1)c1ccc(Br)cc1	nt	-1	3568	-5	nt	nt	nt
O=C1N=c2ccccc2=C1c1sc(NS(=O)(=O)Cc2ccccc2)nc1O	8.2	0	4635	-3	27	14	23
O=C(Nc1cccc(Cl)c1)c1ccc2c(=O)n3c(nc2c1)CCCCC3	nt	6	4793	-128	nt	nt	nt
NC(=O)c1c(C(F)(F)F)cc(-c2ccccc2)nc1NCCO	-0.3	5	4774	-6	-1	nt	nt

Laid out differently: entries from further up.
SMILES | RN4220 kill | BJeLR lethal | Bead autofluor | PrP 5UTR inh | Sa ugtP lethal | Mtb hypoxia inh | Mtb hypoxia inh growth
COc1ccc(C=O)cc1O | 4.2 | 2 | 3528 | -35 | 1 | 13 | 4
Cc1ccc(S(=O)(=O)CCSc2nc(C)cc(C(F)(F)F)c2C#N)cc1 | -13 | 2 | 5577 | -6 | -3 | 14 | 7
CCN(C(=O)CN1C(=S)NC(C)(C)CC1C)c1ccc(C)c(C)c1 (stereo not drawn) | nt | 4 | 3163 | -13 | nt | nt | nt

Random draw from the library (roughly 4% active in at least one column).
